Menin MLL FP FL = qHTS Assay for Inhibitors Targeting the Menin-MLL Interaction in MLL Related Leukemias: Competition With Fluorescein Labeled MLL-derived Peptide; FP activity change, % at 61.4 µM; AID 1766, 2009; Fluorescence polarization, fluorescein-MLL peptide displacement from menin; 290,000 tested, under 10 active; inconclusive = falling polarisation curve, or a change in total fluorescence; inactive = total fluorescence flat and polarisation flat or rising; no compound was filed as active; the % refers to the polarisation; negative = inhibition;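 also: % of control where 0% means no effect; inhibitors lower the polarisation; unlabelled MLL peptide was the positive control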
ClpP mod = qHTS Assay for Activators of ClpP; AID 651965, 2013; purified B. subtilis ClpP, FRET peptide cleavage, 20 min; ATP-dependent Clp protease proteolytic subunit (Bacillus subtilis (strain 168)), P80244; Potency, µM (top dose mostly 57.5 µM), without a hit: at the top dose activity change, negative = active; hit rate 1.9% among 340,000; active = well fitted falling curve with a large enough effect; inconclusive = small, poorly fitted or top-dose-only effect; inactive = no such curve, though single readings can be large or run the other way; also: potency is read from the fitted curve at half-maximal effect; the source files actives as falling curves though it sought activators and does not explain the sign; nearly all actives have a fitted effect of over 65% in size; many hits overshoot -100%
Target sequence (P80244 whole entry, looked up): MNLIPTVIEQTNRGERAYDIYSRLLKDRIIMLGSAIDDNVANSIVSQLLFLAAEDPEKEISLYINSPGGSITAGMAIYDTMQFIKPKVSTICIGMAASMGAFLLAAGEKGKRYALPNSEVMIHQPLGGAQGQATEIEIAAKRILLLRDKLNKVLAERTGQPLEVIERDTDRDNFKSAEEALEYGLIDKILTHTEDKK
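Purified B. subtilis ClpP, 10 microg/mL final in Tris/HCl pH8 with KCl, BSA, glycerol and Tween-20, cleaved an Abz/nitrotyrosine-quenched decapeptide. Fluorescence (ex 320, em 430) was read at 0 and 20 min at room temperature. Delta was normalized to 5.8 microM ADEP and DMSO/no-enzyme controls.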
TRPV1 PAM = HTS Assay for Compounds that Act as Potentiators of the Vanilloid Receptor 1 | Transient receptor potential cation channel subfamily V member 1 (Homo sapiens), Q8NER1 | TRPV1-expressing cells, Fluo-8 calcium influx, capsaicin EC20 potentiation; host cell line not named in the record; control for the full effect not named in the record | potentiation, % at 8.33 µM | hit rate 0.02% among 320,000 | AID 540277, 2011; active means potentiation above 80%; inconclusive means 30% to 80%; inactive means below 30%; also: 0% is about no effect
Target sequence (Q8NER1 whole entry, looked up): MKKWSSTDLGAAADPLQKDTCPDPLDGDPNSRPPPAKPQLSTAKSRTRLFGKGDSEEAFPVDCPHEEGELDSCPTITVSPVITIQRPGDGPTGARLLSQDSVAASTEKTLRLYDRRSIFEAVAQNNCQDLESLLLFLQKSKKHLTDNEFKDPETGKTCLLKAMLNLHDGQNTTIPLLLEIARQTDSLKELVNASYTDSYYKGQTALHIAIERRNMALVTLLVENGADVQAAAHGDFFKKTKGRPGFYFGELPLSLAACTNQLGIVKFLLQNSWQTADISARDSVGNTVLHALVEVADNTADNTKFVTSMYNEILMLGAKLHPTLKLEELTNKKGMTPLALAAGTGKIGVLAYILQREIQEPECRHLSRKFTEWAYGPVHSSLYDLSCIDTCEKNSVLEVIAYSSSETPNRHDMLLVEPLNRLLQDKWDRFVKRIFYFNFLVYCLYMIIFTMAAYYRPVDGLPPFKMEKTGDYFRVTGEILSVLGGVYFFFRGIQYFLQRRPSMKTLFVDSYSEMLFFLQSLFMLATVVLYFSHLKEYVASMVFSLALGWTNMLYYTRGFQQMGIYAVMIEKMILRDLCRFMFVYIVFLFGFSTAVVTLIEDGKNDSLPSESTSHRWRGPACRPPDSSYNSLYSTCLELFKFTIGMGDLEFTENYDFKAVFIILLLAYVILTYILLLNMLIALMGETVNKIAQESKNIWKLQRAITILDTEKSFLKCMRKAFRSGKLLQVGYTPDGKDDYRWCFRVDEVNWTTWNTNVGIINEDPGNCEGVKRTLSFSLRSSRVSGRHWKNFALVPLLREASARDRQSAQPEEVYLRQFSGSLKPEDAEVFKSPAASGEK
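TRPV1-expressing cells were cultured overnight at 35.5C and loaded with Fluo-8 calcium dye for 40 to 90 min at room temperature. After a 10 s baseline, compound was added and calcium influx was read kinetically for 3 min (ex 480/em 520 nm).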
gsp agonist = qHTS for Agonist of gsp, the Etiologic Mutation Responsible for Fibrous Dysplasia/McCune-Albright Syndrome: qHTS; gsp mutant cells, cAMP HTRF, 30 min; control for the full effect not named in the record; Potency, µM (doses to about 76.9 µM), inactives show top-dose activation (cAMP increase), usual class: activators; hit rate 0.13% among 340,000; active = well fitted activation curve with a large enough effect; inconclusive = small, poorly fitted or top-dose-only effect, or another doubt; inactive = no such curve, though single readings can be large or run the other way; cell line not stated here;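 also: phosphodiesterase inhibitor Ro 20-1724 added with compounds to block cAMP breakdown; potency is read from the fitted curve at half-maximal effect; nearly all actives have a fitted effect of over 60% in size; about a fifth of the inactives were tested at one dose only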
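Cells stably selected in G418 were plated at 2000/well, grown 16-24 hr, then given compounds in DMSO with the PDE inhibitor […] (300 uM solution added) for 30 min at 37C; cAMP was read by HTRF.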
Sfp inh = qHTS Assay for Inhibitors of Bacillus subtilis Sfp phosphopantetheinyl transferase (PPTase) | 4'-phosphopantetheinyl transferase ffp (Bacillus subtilis), Q9F4F7 | Biochemical Sfp PPTase activity, qHTS | Potency, µM, for inactives: max response, negative = inhibition, most hits filed as inhibitors | hit rate 3.5% among 310,000 | AID 1490, 2009; active = well fitted inhibition curve with a large enough effect; inconclusive = small, poorly fitted or top-dose-only effect, or another doubt; inactive = no such curve, though single readings can be large or run the other way;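 also: the enzyme is Sfp with the accession as filed and its product quenches rhodamine fluorescence; potency is read from the fitted curve at half-maximal effect; 0% = enzyme reaction without inhibitor and -100% = no enzyme wells; top concentration of the series not given in the record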
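After 15 min at room temperature with compound, 15 nM Sfp received 5 uM rhodamine-CoA plus 12.5 uM BHQ-2-ybbR (50 mM Hepes pH 7.6, 10 mM MgCl2). Rate came from the fluorescence difference over 30 min, ex 525/em 598 nm.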
gsp antagonist = qHTS for Antagonists of gsp, the Etiologic Mutation Responsible for Fibrous Dysplasia/McCune-Albright Syndrome: qHTS; hit rate 0.4% among 340,000; Potency, µM (doses to about 76.9 µM), for inactives: at the top dose activity change, negative = inhibition, usual class: inhibitors; gsp-mutant cells, cAMP HTRF, 30 min; control for the full effect not named in the record; active = falling curve of any shape with a large fitted effect; inconclusive = falling curve, mostly with a smaller effect; inactive = flat or rising curve; cell line not stated here;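 also: intracellular cAMP measured with PDE inhibitor Ro 20-1724 present during compound exposure; potency is read from the fitted curve at half-maximal effect; % is scaled to controls: 0 for no effect and ±100 for the full control effect; nearly all actives have a fitted effect of over 65% in size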
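Cells, 2000/well, grown 16–24 h in DMEM 10% FBS with 0.5 mg/ml G418, then compounds plus […] (300 uM addition stock), 30 min at 37C. cAMP read by HTRF (cAMP-d2 and anti-cAMP antibody-K in lysis buffer) after 30 min RT.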
CtBP-E1A inh = qHTS Assay for Inhibitors of the CtBP/E1A Interaction | AlphaScreen GST-E1A/His-CtBP binding, 1536-well; stronger effect = lower value; control for the full effect not named in the record | activity change, % (no concentration beside the values) | hit rate 0.49% among 340,000 | AID 651724, 2012; in the data active means activity change below about -65%; inconclusive means about -30% to -65%; inactive means above about -30%; also: % is scaled to controls: 0 for no effect and ±100 for the full control effect; compound concentration not given in the record
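Homogeneous bead-based format: GST-tagged E1A captured on glutathione donor beads, His-tagged CtBP on nickel acceptor beads; compounds precede bead addition by 2 h at 37 °C.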
* hit, by the source's call; [ ] = dose if it differs, or a comment.

COc1ccc(Cl)cc1N(CC(=O)N1CCCCCC1)S(C)(=O)=O was read as Menin MLL FP FL -3.5, ClpP mod -0.9%, TRPV1 PAM 5, gsp agonist 16%, Sfp inh 5%, gsp antagonist 0% and CtBP-E1A inh 3.
Screening Cc1ccccc1NC(NC(=O)c1cccnc1)C(Cl)(Cl)Cl (configuration not stated) returned Menin MLL FP FL -2.4, ClpP mod 13µM*, TRPV1 PAM -3, gsp agonist -9%, Sfp inh -7%, gsp antagonist -4% and CtBP-E1A inh 3.
`CCOc1ccc(/C=C(/NC(=O)c2ccc(Cl)cc2)C(=O)O)cc1OCC` gave Menin MLL FP FL -2.6, TRPV1 PAM 4, gsp agonist -26%[15.4 µM], Sfp inh 11%, gsp antagonist 2% and CtBP-E1A inh 12.
Clc1ccc(CN2CCCCCC2)cc1 was read as Menin MLL FP FL -1.5, ClpP mod -0.1%, TRPV1 PAM -12, gsp agonist 0%[15.4 µM], Sfp inh 1%, gsp antagonist -10% and CtBP-E1A inh -5.
COc1cc(OC)c(C2C3=C(CCCC3=O)Nc3nc4ccccc4n32)cc1OC (configuration not stated) was read as Menin MLL FP FL 4.9, ClpP mod 25µM*, TRPV1 PAM -14, gsp agonist 26%, Sfp inh 15%, gsp antagonist 4% and CtBP-E1A inh 2.
Screening Cc1cc(C)cc(NC(=O)C2CCCN2S(=O)(=O)c2ccc3c(c2)n(C)c(=O)c(=O)n3C)c1 (configuration not stated) returned Menin MLL FP FL -1.6, ClpP mod -6.9%, TRPV1 PAM -8, gsp agonist 21%, Sfp inh -24%, gsp antagonist -8% and CtBP-E1A inh 3.
`CC1CCc2cc(F)ccc2N1C(=O)CSc1nnc2c(n1)[nH]c1ccc(F)cc12` (configuration not stated) gave Menin MLL FP FL 2.8, ClpP mod 0.9%, TRPV1 PAM -14, gsp agonist -51%[inhibitor], Sfp inh -11%, gsp antagonist 1% and CtBP-E1A inh -13.
`Cc1cc(=O)n2[nH]c(CCC(=O)O)nc2n1` gave Menin MLL FP FL 2.1, TRPV1 PAM 11, gsp agonist 8%[15.4 µM], Sfp inh -21%, gsp antagonist 7% and CtBP-E1A inh 3.
Screening O=C1c2oc3ccc(F)cc3c(=O)c2C(c2ccccc2)N1CC1CCCO1 (configuration not stated) returned Menin MLL FP FL -3.6, ClpP mod -0.7%, TRPV1 PAM -15, gsp agonist 20%, Sfp inh 11%, gsp antagonist 0% and CtBP-E1A inh 7.
Screening Cc1cc(C)n(-c2ccc(C(=O)OCC(=O)Nc3ccc(S(N)(=O)=O)cc3)cc2)n1 returned ClpP mod 1.1%, gsp agonist -10%[15.4 µM], gsp antagonist -3% and CtBP-E1A inh 10.
`Nc1ccc(S(=O)(=O)NC2=NCCCCC2)cc1` gave Menin MLL FP FL 5.8, gsp agonist -19%[15.4 µM], Sfp inh -3%, gsp antagonist 7% and CtBP-E1A inh 6.
`Cc1cccc(N(CC(=O)NCc2ccco2)C(=O)CCC(=O)Nc2nccs2)c1C` gave Menin MLL FP FL 5.0, TRPV1 PAM 1, gsp agonist 20%, Sfp inh -1%, gsp antagonist -4% and CtBP-E1A inh -6.
O=C(/C=C/c1ccco1)N1CCN(c2ccc(F)cc2)CC1 was read as Menin MLL FP FL 13, TRPV1 PAM 9, gsp agonist -1%, Sfp inh 18µM*, gsp antagonist -4% and CtBP-E1A inh 9.
Screening COc1cc(NC(=O)Cn2cnc3c(nc4n3CCCCC4)c2=O)cc(OC)c1OC returned Menin MLL FP FL 5.5, ClpP mod -0.4%, TRPV1 PAM 1, gsp agonist inconclusive, Sfp inh 11%, gsp antagonist 18% and CtBP-E1A inh -4.
Screening Cc1ccc(F)cc1NC(=O)CCC(=O)c1cccs1 returned Menin MLL FP FL -1.6, ClpP mod 1.7%, TRPV1 PAM 3, gsp agonist 4%, Sfp inh 12%, gsp antagonist -4% and CtBP-E1A inh 0.
For CCc1cc(C)cc(OCCNC(=O)c2ncn[nH]2)c1 the results were Menin MLL FP FL 4.5, ClpP mod 1.3%, TRPV1 PAM 22, gsp agonist -14%, Sfp inh 23%, gsp antagonist -7% and CtBP-E1A inh 10.
For Cc1cc(NC(=O)CSc2nnc(NCc3ccco3)s2)no1 the results were ClpP mod -1.3%, TRPV1 PAM -1, gsp agonist 15%, gsp antagonist 1% and CtBP-E1A inh -4.
Screening Cc1cccc(C(=O)N(Cc2nc3ccccc3c(=O)[nH]2)C2CCCCC2)c1 returned Menin MLL FP FL -4.8, TRPV1 PAM -1, gsp agonist 0%[15.4 µM], Sfp inh 0%, gsp antagonist -4% and CtBP-E1A inh -7.
COc1ccc(Cl)cc1NC(=O)NCc1ccccn1 was read as Menin MLL FP FL 0.7, ClpP mod -1.3%, TRPV1 PAM 2, gsp agonist -31%[inhibitor], Sfp inh 9%, gsp antagonist 7% and CtBP-E1A inh -23.
O=C(CN1C(=O)NC2(CCCCC2)C1=O)NCCCSc1ccccc1 was read as ClpP mod -2.1%, TRPV1 PAM -8, gsp agonist 4%, gsp antagonist 10% and CtBP-E1A inh -2.
For Cc1cccc(C)c1NC(=O)CN(C)C(=O)c1ccccc1Cc1ccccc1 the results were ClpP mod 0.3%, TRPV1 PAM -3, gsp agonist 2%[15.4 µM], gsp antagonist 5% and CtBP-E1A inh 4.
Screening COc1ccccc1NC(=O)COc1ccc(/C=N/NC(=O)CSCc2ccc(Cl)cc2)cc1 returned Menin MLL FP FL 4.1, ClpP mod -12%, TRPV1 PAM -10, gsp agonist -11%, Sfp inh 40µM*, gsp antagonist -14% and CtBP-E1A inh -11.
`CCOC(=O)C1(Cc2cccc(F)c2)CCN(Cc2cnn(CC)c2C)CC1` gave Menin MLL FP FL -1.4, TRPV1 PAM -6, gsp agonist 10%, Sfp inh 15%, gsp antagonist 3% and CtBP-E1A inh -5.
For CCOC(=O)c1ccc(NC(=O)CCSCCc2ccccn2)cc1 the results were Menin MLL FP FL 0.2, ClpP mod 1.8%, TRPV1 PAM -6, gsp agonist 12%, Sfp inh 4%, gsp antagonist -13% and CtBP-E1A inh 5.
O=[N+]([O-])c1cccc(N2Cc3ccccc3C2)c1 was read as Menin MLL FP FL -2.3, ClpP mod -0.1%, TRPV1 PAM -13, gsp agonist -7%[15.4 µM], Sfp inh -4%, gsp antagonist -16% and CtBP-E1A inh 2.
`Cc1ccc(C(=O)n2cnnc2N)cc1` gave Menin MLL FP FL 7.0, ClpP mod -3.7%, TRPV1 PAM 6, gsp agonist 1%, Sfp inh 15%, gsp antagonist -4% and CtBP-E1A inh 5.
For O=C(COc1ccccc1F)Nc1ccc(N2CCOCC2)cc1N1CCOCC1 the results were TRPV1 PAM -11, gsp agonist -4%[15.4 µM], gsp antagonist 3% and CtBP-E1A inh 8.
`OC(COC(c1ccc(F)cc1)c1ccc(F)cc1)CN1CCCC1` (configuration not stated) gave Menin MLL FP FL inconclusive, ClpP mod 0.8%, TRPV1 PAM -47, gsp agonist 18%, Sfp inh 79µM* and gsp antagonist -4%.
`COc1cccc(-c2cc(C(F)(F)F)n3ncc(C(=O)O)c3n2)c1` gave Menin MLL FP FL 4.4, ClpP mod -0.2%, TRPV1 PAM 2, gsp agonist 2%, Sfp inh 6%, gsp antagonist 1% and CtBP-E1A inh 5.
`COc1ccc(Cl)cc1NC(=O)Nc1ccc(C(=O)N2CCCC2)cc1` gave ClpP mod -0.8%, TRPV1 PAM 1, gsp agonist inconclusive, Sfp inh 21%, gsp antagonist inconclusive and CtBP-E1A inh 0.

6 neighbouring compounds from above, quoted:
O=[N+]([O-])c1cccc(N2Cc3ccccc3C2)c1 was read as Menin MLL FP FL -2.3, ClpP mod -0.1%, TRPV1 PAM -13, gsp agonist -7%[15.4 µM], Sfp inh -4%, gsp antagonist -16% and CtBP-E1A inh 2.
`Cc1ccc(C(=O)n2cnnc2N)cc1` gave Menin MLL FP FL 7.0, ClpP mod -3.7%, TRPV1 PAM 6, gsp agonist 1%, Sfp inh 15%, gsp antagonist -4% and CtBP-E1A inh 5.
For O=C(COc1ccccc1F)Nc1ccc(N2CCOCC2)cc1N1CCOCC1 the results were TRPV1 PAM -11, gsp agonist -4%[15.4 µM], gsp antagonist 3% and CtBP-E1A inh 8.
`OC(COC(c1ccc(F)cc1)c1ccc(F)cc1)CN1CCCC1` (configuration not stated) gave Menin MLL FP FL inconclusive, ClpP mod 0.8%, TRPV1 PAM -47, gsp agonist 18%, Sfp inh 79µM* and gsp antagonist -4%.
`COc1cccc(-c2cc(C(F)(F)F)n3ncc(C(=O)O)c3n2)c1` gave Menin MLL FP FL 4.4, ClpP mod -0.2%, TRPV1 PAM 2, gsp agonist 2%, Sfp inh 6%, gsp antagonist 1% and CtBP-E1A inh 5.
`COc1ccc(Cl)cc1NC(=O)Nc1ccc(C(=O)N2CCCC2)cc1` gave ClpP mod -0.8%, TRPV1 PAM 1, gsp agonist inconclusive, Sfp inh 21%, gsp antagonist inconclusive and CtBP-E1A inh 0.

Screens (PubChem BioAssay)
